Ecoli growth – E. coli growth inhibition; OD600 absorbance (no concentration beside the values); Escherichia coli growth, OD600, 23 h; hits give low values; AID 1053175; hit rate 0.21% among 330,000;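 active = OD600 absorbance below the run mean of sample wells minus 3.6 SD, in any replicate, cut at about 0.56 in these data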;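 note: stock transfer was 300 nL into about 60 µL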
FGF22 binding – binders of recombinant human FGF22 by thermal shift. SYPRO orange fluorescence; percent of sucrose octasulfate shift, DMSO zero. AID 651658. calls only at 9.99 µM. hit rate 1.5% among 340,000;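 active = melting point raised past a set limit in the mean and every replicate; three in four hits are not shown here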
Target sequence (Q9HCT0 whole entry, looked up): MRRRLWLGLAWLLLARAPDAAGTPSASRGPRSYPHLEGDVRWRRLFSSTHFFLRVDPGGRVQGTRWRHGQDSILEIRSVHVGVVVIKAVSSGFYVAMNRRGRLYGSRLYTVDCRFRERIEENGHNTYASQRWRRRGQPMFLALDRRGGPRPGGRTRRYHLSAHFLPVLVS
UCH37 DUB inh – blocks the human deubiquitinase UCH37 | AID 588478 | hit rate 0.33% among 330,000 | Q9Y5K5 | purified proteasome/UCH37, Ub-AMC cleavage fluorescence | inhibition, % (test concentration not listed);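 active = mean of two replicates above 20%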;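 note: 0% = compound-free wells with enzyme and 100% = wells lacking proteasome; stock transfer was 100 nL into about 20 µL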
Target sequence (Q9Y5K5 whole entry, looked up): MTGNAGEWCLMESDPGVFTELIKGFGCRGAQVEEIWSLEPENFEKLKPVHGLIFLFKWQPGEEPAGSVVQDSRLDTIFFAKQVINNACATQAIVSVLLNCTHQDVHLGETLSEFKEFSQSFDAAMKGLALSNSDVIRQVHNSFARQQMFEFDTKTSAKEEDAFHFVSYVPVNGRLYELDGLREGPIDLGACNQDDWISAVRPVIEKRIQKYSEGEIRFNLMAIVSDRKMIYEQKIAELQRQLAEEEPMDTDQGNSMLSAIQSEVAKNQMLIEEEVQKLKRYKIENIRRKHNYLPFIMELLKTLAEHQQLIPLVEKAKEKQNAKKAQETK
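Test system – human UCH37 enzyme supplied as purified proteasome complex · Incubation – 30 min preincubation with enzyme, 25 min cleavage at room temperature · Detection – AMC fluorescence from Ub-AMC cleavage, excitation 355 nm, emission 460 nm · Benchmarks – no-proteasome wells (full inhibition) and compound-free wells (no inhibition)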
ALR H2O2 inh – inhibitors of human sulfhydryl oxidase ALR | AID 485317 | purified ALR, DTT oxidation, H2O2 HRP-luminol luminescence | P55789 | inhibition, % (test concentration not listed) | hit rate 3.8% among 290,000;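 active = mean and each replicate at 75% or more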;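 note: stock transfer was 7.5 nL into about 7.5 µL; 0% = neutral wells and 100% = wells with inactivated enzyme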
B2AR ag – agonists of human beta-2 adrenergic receptor inducing internalization; response, % (test concentration not listed); Am2.2-beta2AR cells, FAP receptor internalization, flow cytometry; reference of the scale not given here; hit rate 0.43% among 340,000;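 active = response above a set limit, near 3 SD of response in nonfluorescent compounds, cut at about 42% in these data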;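 note: stock transfer was 100 nL into about 11 µL; a reference agonist was the positive control; negative values mostly stem from fluorescent compounds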
Target sequence (P07550 whole entry, looked up): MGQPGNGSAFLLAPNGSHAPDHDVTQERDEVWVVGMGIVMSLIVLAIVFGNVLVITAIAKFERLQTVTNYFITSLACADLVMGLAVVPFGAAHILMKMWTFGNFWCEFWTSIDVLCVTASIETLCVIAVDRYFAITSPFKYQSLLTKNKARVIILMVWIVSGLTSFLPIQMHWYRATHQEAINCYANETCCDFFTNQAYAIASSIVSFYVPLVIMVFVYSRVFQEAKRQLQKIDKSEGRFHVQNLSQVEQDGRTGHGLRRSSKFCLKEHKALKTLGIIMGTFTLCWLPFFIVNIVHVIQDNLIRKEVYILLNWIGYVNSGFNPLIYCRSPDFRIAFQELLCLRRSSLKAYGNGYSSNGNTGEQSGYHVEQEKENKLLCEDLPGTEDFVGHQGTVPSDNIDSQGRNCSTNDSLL
HNF4A DNA FP – change in binding of human HNF4 alpha to DNA; P41235; HNF4a-FITC DNA binding, fluorescence polarization, 1 h; activity change, % at 10 µM; hit rate 0.3% among 360,000; AID 1224865; in the data active = activity change above about 30%, passing the limit was not always enough;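 note: controls were the assay level and a saturating level of protein; the project sought stronger binding though the title names inhibitors; some compounds called inactive have numbers as strong as hits; positive values seem to mean higher polarization but the record does not say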
Ecoli rRNA inh – inhibitors of bacterial rRNA selective over humanized ribosomes | E. coli WT GFP vs humanized-ribosome RFP mutants, fluorescence, 24 h; hits give low values; DMSO median 0, no signal -100 | GFP signal change (wild-type ribosome), % (concentration not given with the values) | hit rate 1.6% among 350,000 | AID 720706;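 active = significant combined selectivity score with lowered wild-type GFP, culture density cut under 30%, mutant RFP and density less affected; inactive = any of these conditions unmet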; note: one replicate is shown; some compounds called inactive have numbers as strong as hits
Ecoli rRNA inh OD600 – second read-out of Ecoli rRNA inh, no call of its own (marks repeat the call); OD600 change, %; measured here: OD600 growth;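 optical density of the mix in the first replicate; 0 = DMSO median and -100 = no signal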
Ecoli rRNA inh RFP – further read-out of Ecoli rRNA inh, marked with its call; RFP signal change, %; measured here: RFP humanized mutant strains;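 first replicate; 0 = DMSO median and -100 = no signal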
Active calls of the source: *; & = joins results of further samples.

How did CC(Sc1ccc(S(=O)(=O)N2CCOCC2)cc1[N+](=O)[O-])C(=O)O (stereo unspecified) do in these assays?
Ecoli growth: 0.69; UCH37 DUB inh: 2.3; ALR H2O2 inh: -28; B2AR ag: 8; HNF4A DNA FP: 1.1

What do the screens show for `CCc1ccc(CNc2ccc(N3CCN(C(C)=O)CC3)cc2)cc1`?
Ecoli growth: 0.68; UCH37 DUB inh: 0.9; ALR H2O2 inh: 99*; B2AR ag: -4; HNF4A DNA FP: 6.0

How did Cc1cc(C)c(C)c(S(=O)(=O)NCC(=O)Nc2ccccc2F)c1C do in these assays?
Ecoli growth: 0.69; FGF22 binding: inactive; UCH37 DUB inh: 0.7; B2AR ag: -12; HNF4A DNA FP: 2.7; Ecoli rRNA inh: -10; Ecoli rRNA inh OD600: -7; Ecoli rRNA inh RFP: 5.9

Results for CC(=O)NC(c1cccc(F)c1)c1nc(-c2ccccc2C)cs1 (stereo unspecified) ?
FGF22 binding: inactive; HNF4A DNA FP: 0.2; Ecoli rRNA inh: 5; Ecoli rRNA inh OD600: 6; Ecoli rRNA inh RFP: 3.4

Results for CCc1cccc(CC)c1-n1c(SCC(=O)N2CCc3ccccc32)nc(O)cc1=O ?
Ecoli growth: 0.65; FGF22 binding: inactive; UCH37 DUB inh: 1.8; ALR H2O2 inh: 12; B2AR ag: -1; HNF4A DNA FP: -1.6; Ecoli rRNA inh: 7; Ecoli rRNA inh OD600: 12; Ecoli rRNA inh RFP: 7.6

Results for COc1ccc(N2C(=O)N3[C@H](c4cccc(C)c4)[C@@H]4C(=O)N(Cc5ccccc5)C(=O)[C@@H]4[C@]3(Cc3ccccc3)C2=O)cc1 ?
FGF22 binding: inactive; UCH37 DUB inh: 1.4; ALR H2O2 inh: 6; Ecoli rRNA inh: 4; Ecoli rRNA inh OD600: -4; Ecoli rRNA inh RFP: -4.7

Results for O=C(N/N=C/c1sc(N2CCCCC2)nc1-c1cccs1)c1cccnc1 ?
FGF22 binding: inactive; ALR H2O2 inh: 26; B2AR ag: -31; HNF4A DNA FP: 35; Ecoli rRNA inh: -51; Ecoli rRNA inh OD600: -72; Ecoli rRNA inh RFP: -11

How did CC(NC(=O)NC1CCCCC1)C(c1cccs1)N1CCN(c2ccccc2)CC1 (stereo unspecified) do in these assays?
Ecoli growth: 0.76; FGF22 binding: inactive; UCH37 DUB inh: 2.3; B2AR ag: 34; HNF4A DNA FP: 1.0; Ecoli rRNA inh: 5; Ecoli rRNA inh OD600: -32; Ecoli rRNA inh RFP: -6.9

What do the screens show for `O=C(O)c1ccc(Cl)c(S(=O)(=O)N(Cc2ccccc2)c2ccccc2)c1`?
Ecoli growth: 0.66; FGF22 binding: inactive; UCH37 DUB inh: 1.4; ALR H2O2 inh: 12; B2AR ag: 6; HNF4A DNA FP: -0.7; Ecoli rRNA inh: -16; Ecoli rRNA inh OD600: -39; Ecoli rRNA inh RFP: -6.8

How did O=C1CCC(=O)N1OCCOc1ccc(Cl)c2ccccc12 do in these assays?
Ecoli growth: 0.65; FGF22 binding: inactive; UCH37 DUB inh: 0.2; B2AR ag: 1; HNF4A DNA FP: -1.8; Ecoli rRNA inh: -4; Ecoli rRNA inh OD600: 4; Ecoli rRNA inh RFP: 1.5

What do the screens show for `CCN(C(=O)CN1CCOCC1)C1(C)C(=O)c2ccccc2C1=O`?
Ecoli growth: 0.72; FGF22 binding: inactive; UCH37 DUB inh: 5.8; ALR H2O2 inh: -15; B2AR ag: 1; HNF4A DNA FP: 0.0; Ecoli rRNA inh: -4; Ecoli rRNA inh OD600: 6; Ecoli rRNA inh RFP: -3.5

What do the screens show for `Cc1ccc(C(=O)NNC(=O)c2ccc(S(=O)(=O)N(C)c3ccccc3)cc2)cc1`?
Ecoli growth: 0.7; FGF22 binding: inactive; UCH37 DUB inh: 5.1; B2AR ag: 1; HNF4A DNA FP: -1.0; Ecoli rRNA inh: -3; Ecoli rRNA inh OD600: -5; Ecoli rRNA inh RFP: 1.3

Results for CCN1CCN(C(=O)C2CCN(S(=O)(=O)c3ccc(Br)cc3)CC2)CC1 ?
Ecoli growth: 0.65; FGF22 binding: inactive; UCH37 DUB inh: 3.5; ALR H2O2 inh: -9; B2AR ag: 1; HNF4A DNA FP: 1.7; Ecoli rRNA inh: 7; Ecoli rRNA inh OD600: 13; Ecoli rRNA inh RFP: 1.5

What do the screens show for `CC(C)NC(=O)N(C)C[C@H]1OCc2cnnn2CCCC(=O)N([C@H](C)CO)C[C@@H]1C`?
FGF22 binding: inactive; HNF4A DNA FP: 0.7; Ecoli rRNA inh: 7&2; Ecoli rRNA inh OD600: 6&11; Ecoli rRNA inh RFP: -0.9&-5.8

What do the screens show for `COc1cccc(-n2c(N)cc(=O)nc2SCC(=O)Nc2cc(C)on2)c1`?
Ecoli growth: 0.7; FGF22 binding: inactive; UCH37 DUB inh: 0.9; ALR H2O2 inh: 29; B2AR ag: 0; HNF4A DNA FP: -0.1; Ecoli rRNA inh: 9; Ecoli rRNA inh OD600: 3; Ecoli rRNA inh RFP: 0.0

Continued; the last two above are carried over.
What do the screens show for `CC(C)NC(=O)N(C)C[C@H]1OCc2cnnn2CCCC(=O)N([C@H](C)CO)C[C@@H]1C`?
FGF22 binding: inactive; HNF4A DNA FP: 0.7; Ecoli rRNA inh: 7&2; Ecoli rRNA inh OD600: 6&11; Ecoli rRNA inh RFP: -0.9&-5.8

What do the screens show for `COc1cccc(-n2c(N)cc(=O)nc2SCC(=O)Nc2cc(C)on2)c1`?
Ecoli growth: 0.7; FGF22 binding: inactive; UCH37 DUB inh: 0.9; ALR H2O2 inh: 29; B2AR ag: 0; HNF4A DNA FP: -0.1; Ecoli rRNA inh: 9; Ecoli rRNA inh OD600: 3; Ecoli rRNA inh RFP: 0.0

Results for CC1CCCCC1NC(=O)CCCN1C(=O)c2ccccc2C1=O (stereo unspecified) ?
Ecoli growth: 0.68; FGF22 binding: inactive; UCH37 DUB inh: 2.1; ALR H2O2 inh: -2; B2AR ag: -7; HNF4A DNA FP: -0.2; Ecoli rRNA inh: 3; Ecoli rRNA inh OD600: 13; Ecoli rRNA inh RFP: 1.1

What do the screens show for `COc1ccc(C(C)=O)cc1COC(=O)CNC(=O)C1CCCCC1`?
Ecoli growth: 0.69; FGF22 binding: inactive; UCH37 DUB inh: 4.1; ALR H2O2 inh: -4; B2AR ag: -7; HNF4A DNA FP: 4.3; Ecoli rRNA inh: 5; Ecoli rRNA inh OD600: -3; Ecoli rRNA inh RFP: -2.3

What do the screens show for `CC(NC(=O)/C(C#N)=C/c1ccc(Cl)c([N+](=O)[O-])c1)c1ccccc1` (stereo unspecified)?
FGF22 binding: inactive; UCH37 DUB inh: -1.0; ALR H2O2 inh: 4; Ecoli rRNA inh: -11; Ecoli rRNA inh OD600: -19; Ecoli rRNA inh RFP: 0.3

How did CCC(=O)Nc1nc2c(OC)ccc(C)c2s1 do in these assays?
Ecoli growth: 0.75; FGF22 binding: inactive; UCH37 DUB inh: 0.4; ALR H2O2 inh: 66; B2AR ag: -8; HNF4A DNA FP: -2.4; Ecoli rRNA inh: -4; Ecoli rRNA inh OD600: -17; Ecoli rRNA inh RFP: -3.9

How did Cc1ccc(S(=O)(=O)NC(C)C(c2cccs2)N2CCN(c3ccccc3)CC2)cc1 (stereo unspecified) do in these assays?
Ecoli growth: 0.75; FGF22 binding: inactive; UCH37 DUB inh: 2.5; B2AR ag: 12; HNF4A DNA FP: -2.2; Ecoli rRNA inh: 14; Ecoli rRNA inh OD600: 6; Ecoli rRNA inh RFP: 0.0

How did O=C(Nc1ccc2c(c1)CCC2)c1ccc(Cl)nc1 do in these assays?
Ecoli growth: 0.63; FGF22 binding: inactive; UCH37 DUB inh: 3.0; ALR H2O2 inh: -10; B2AR ag: -7; HNF4A DNA FP: 1.6; Ecoli rRNA inh: -15; Ecoli rRNA inh OD600: -5; Ecoli rRNA inh RFP: -8.0

How did Nc1ccc(C2(c3ccc(N)cc3)c3ccccc3C(=O)c3ccccc32)cc1 do in these assays?
Ecoli growth: 0.68; FGF22 binding: inactive; UCH37 DUB inh: 7.4; ALR H2O2 inh: 2; B2AR ag: 12; HNF4A DNA FP: -1.9; Ecoli rRNA inh: -32*; Ecoli rRNA inh OD600: -16*; Ecoli rRNA inh RFP: -3.7*

What do the screens show for `O=C(NCc1ccccc1)C(C1CC1)n1c(-c2cccs2)nc2ccccc21` (stereo unspecified)?
FGF22 binding: inactive; HNF4A DNA FP: 3.4; Ecoli rRNA inh: -2; Ecoli rRNA inh OD600: -9; Ecoli rRNA inh RFP: -0.2

Results for C=C(C)C1Cc2c(C)nn(-c3cccc4cccnc34)c2C1 (stereo unspecified) ?
Ecoli growth: 0.67; FGF22 binding: inactive; UCH37 DUB inh: 2.0; B2AR ag: -25; HNF4A DNA FP: 4.9; Ecoli rRNA inh: -6; Ecoli rRNA inh OD600: -10; Ecoli rRNA inh RFP: 4.7

Results for CCCc1cc2c(cc1NC(=O)c1ccc(C(C)(C)C)cc1)OCO2 ?
Ecoli growth: 0.67; FGF22 binding: inactive; UCH37 DUB inh: 5.4; ALR H2O2 inh: -7; B2AR ag: 6; HNF4A DNA FP: 0.0; Ecoli rRNA inh: -16; Ecoli rRNA inh OD600: -22; Ecoli rRNA inh RFP: -13

How did Cc1ccc(SC(CC(=O)c2ccc(F)cc2)C(=O)O)cc1 (stereo unspecified) do in these assays?
Ecoli growth: 0.59; FGF22 binding: inactive; UCH37 DUB inh: 2.3; B2AR ag: -12; HNF4A DNA FP: -0.2; Ecoli rRNA inh: 10; Ecoli rRNA inh OD600: 11; Ecoli rRNA inh RFP: -1.5

How did O=C(CSc1oc(-c2ccc(F)cc2)nc1S(=O)(=O)c1ccc(F)cc1)NCC1CCCO1 (stereo unspecified) do in these assays?
Ecoli growth: 0.7; UCH37 DUB inh: 1.4; ALR H2O2 inh: -7; B2AR ag: -8; HNF4A DNA FP: 1.2

How did CC(C)N(C(=O)[C@H]1C[C@H](CC(=O)NCc2ccco2)C(=O)N2CCc3c([nH]c4ccc(Cl)cc34)[C@]12C)C(C)C do in these assays?
Ecoli growth: 0.69; FGF22 binding: inactive; UCH37 DUB inh: 5.7; B2AR ag: -5; HNF4A DNA FP: -2.8; Ecoli rRNA inh: -2; Ecoli rRNA inh OD600: -2; Ecoli rRNA inh RFP: 5.6

What do the screens show for `CCOC(=O)C1CCN(C(=O)C2CCN(S(=O)(=O)N3CCC4(CC3)OCCO4)CC2)CC1`?
Ecoli growth: 0.68; FGF22 binding: inactive; UCH37 DUB inh: 3.8; ALR H2O2 inh: -1; B2AR ag: 4; HNF4A DNA FP: 2.4; Ecoli rRNA inh: 4; Ecoli rRNA inh OD600: 17; Ecoli rRNA inh RFP: -2.1

Results for CCc1nnc(NC(=O)CSc2nnc(COc3ccc(C#N)cc3)n2-c2ccccc2)s1 ?
Ecoli growth: 0.7; UCH37 DUB inh: 3.1; ALR H2O2 inh: 10; B2AR ag: 4; HNF4A DNA FP: -1.6

Results for O=c1oc2ccccc2c(O)c1Sc1ccc(Cl)cc1 ?
Ecoli growth: 0.62; FGF22 binding: inactive; UCH37 DUB inh: 18; ALR H2O2 inh: 38; B2AR ag: -4; HNF4A DNA FP: 1.2; Ecoli rRNA inh: -19; Ecoli rRNA inh OD600: -29; Ecoli rRNA inh RFP: -7.1

Results for COc1ccc([C@H]2C[C@@H](n3cc(C4CC4)nn3)[C@H](O)CN2CC2CCCCC2)cc1 ?
FGF22 binding: inactive; HNF4A DNA FP: -0.8; Ecoli rRNA inh: -15; Ecoli rRNA inh OD600: -36; Ecoli rRNA inh RFP: 4.7

What do the screens show for `Cc1cccc(C(=O)O/N=C(\N)c2ccc(Br)cc2)c1`?
UCH37 DUB inh: 3.8; ALR H2O2 inh: 1; B2AR ag: -6; HNF4A DNA FP: 1.7

An excerpt; count on the stated rates, not on these rows.
